miR-21 reporter – raises the signal of a miR-21 reporter. Potency, µM (doses to about 38.3 µM), inactives show top-dose reporter change, positive = more light. AID 2288. 340,000 tested, under 10 active. HeLa miR-21 FLuc reporter, luciferase, 48 h; active = well fitted rising curve with a large enough effect; inconclusive = small, poorly fitted or top-dose-only effect; inactive = no such curve, though single readings can be large or run the other way;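 also: % of control where 0% means no effect; miR-21 action dims this reporter so a rising signal means less miR-21 action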
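Luminescence from a firefly luciferase reporter carrying a miR-21 binding site downstream, stably expressed under a CMV promoter in HeLa cells that make miR-21 endogenously, reports miRNA modulation after 48 h compound exposure up to approximately 40uM final.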
GLA inh pH 4.5 – inhibitors of human alpha-galactosidase A at pH 4.5. P06280. purified enzyme, 4-MU-alpha-Gal fluorescence, pH 4.5. activity change, negative = inhibition, % at 105 µM. 230,000 tested, under 10 active; inconclusive = small, poorly fitted or top-dose-only inhibition, or a rising curve; inactive = flat fitted curve, though single readings scatter; no compound was filed as active;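 also: 0% = full activity with enzyme and -100% = basal without enzyme; dose as in the result columns while the protocol names 77 µM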
Rango complex inh – prevents formation of the Rango-importin beta complex. Rango CFP/YFP FRET sensor + importin beta, 45 min. AID 540263. 0.031% of 340,000 active. Potency, µM (titrated, usually from 92.2 µM), for the others: at the top dose inhibition of complex formation; active = rising FRET ratio curve, often small or poorly fitted; inconclusive = mostly compound fluorescence or quenching in the first reads; inactive = flat curves in all reads;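 also: potency is read from the fitted curve at half-maximal effect; 0% = DMSO wells and 100% = buffer wells lacking importin beta; nearly all actives have a fitted effect of over 15% in size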
Target sequence (Q14974 whole entry, looked up): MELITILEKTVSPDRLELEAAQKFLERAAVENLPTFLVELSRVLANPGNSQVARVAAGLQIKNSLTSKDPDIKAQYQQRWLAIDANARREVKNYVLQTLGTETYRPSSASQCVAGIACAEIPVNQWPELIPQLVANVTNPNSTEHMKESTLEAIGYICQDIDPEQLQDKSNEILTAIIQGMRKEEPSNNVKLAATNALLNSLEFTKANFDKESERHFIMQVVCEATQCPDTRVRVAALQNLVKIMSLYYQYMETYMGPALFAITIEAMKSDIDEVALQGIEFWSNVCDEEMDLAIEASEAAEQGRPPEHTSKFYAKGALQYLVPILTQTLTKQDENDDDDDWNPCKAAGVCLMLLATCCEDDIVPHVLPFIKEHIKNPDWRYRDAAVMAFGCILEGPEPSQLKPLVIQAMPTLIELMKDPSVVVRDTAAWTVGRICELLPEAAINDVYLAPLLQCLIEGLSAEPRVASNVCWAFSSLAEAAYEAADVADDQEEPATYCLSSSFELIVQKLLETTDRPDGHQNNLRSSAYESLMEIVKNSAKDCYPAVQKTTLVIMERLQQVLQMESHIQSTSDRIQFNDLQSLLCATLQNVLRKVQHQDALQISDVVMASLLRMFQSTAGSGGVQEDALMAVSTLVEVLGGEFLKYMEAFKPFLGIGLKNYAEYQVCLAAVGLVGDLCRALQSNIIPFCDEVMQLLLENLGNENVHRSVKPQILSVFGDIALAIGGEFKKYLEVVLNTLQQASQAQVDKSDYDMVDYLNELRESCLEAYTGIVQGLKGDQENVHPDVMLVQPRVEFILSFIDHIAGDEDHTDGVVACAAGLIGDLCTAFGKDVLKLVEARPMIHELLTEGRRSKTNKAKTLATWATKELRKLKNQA
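FRET biosensor (snurportin 1 IBB flanked by EYFP and cerulean), 50 nM, with compound 5 min, then 0.125 microM importin beta in PBS, 1 mM DTT, 0.02% Tween-20, 0.1% BSA. CFP/YFP ratio read after 45 min at room temperature; pre-read flags interference.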
Rango dissoc inh – prevents RanGTP from dissociating the Rango-importin beta complex. O95149+P62826. 0.071% of 340,000 active. Biochemical FRET Rango-importin beta, RanGTP-induced dissociation. Potency, µM (highest dose often 46.1 µM), for the others: top-dose activity change, negative = inhibition; active means falling FRET ratio curve, often poorly fitted, with flat reads before Ran was added; inconclusive means other falling curves, or compound fluorescence or quenching; inactive means flat or rising ratio curve;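 also: potency is read from the fitted curve at half-maximal effect; % of control where 0% means no effect; nearly all actives have a fitted effect of over 45% in size; -100% = wells without RanGTP and RCC1; the record marks most hits as doubtful in a second field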
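Rango/importin beta premix (0.1/0.25 uM final), PBS + 1 mM DTT + 0.02% Tween-20 + 0.1% BSA; cpd 5 min RT; FRET pre-read; + RanGTP-RCC1 (0.6 uM Ran, 2 mM GTP, 0.2 uM RCC1); 45 min RT; FRET post-read, ex 430, em 486/530 nm.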
Active calls of the source: *; u = inconclusive; x = no result given; & = joins results of further samples; [ ] = dose if it differs, or a comment. Some of the compounds tested. The share of hits here may be higher or lower than overall.

The first two compounds, ahead of the listing:
miR-21 reporter,GLA inh pH 4.5,Rango complex inh,Rango dissoc inh,SMILES
-2%,6,0.1%,-2%,CCn1c(SCc2cccc(F)c2)nnc1-c1cccnc1
x,x,1.4%,0%,C[C@H](CO)N1C[C@H](C)[C@@H](CN(C)S(=O)(=O)c2ccccc2)Oc2c(NC(=O)CCC(F)(F)F)cccc2C1=O

Results, repeating the preview:
miR-21 reporter,GLA inh pH 4.5,Rango complex inh,Rango dissoc inh,SMILES
-2%,6,0.1%,-2%,CCn1c(SCc2cccc(F)c2)nnc1-c1cccnc1
x,x,1.4%,0%,C[C@H](CO)N1C[C@H](C)[C@@H](CN(C)S(=O)(=O)c2ccccc2)Oc2c(NC(=O)CCC(F)(F)F)cccc2C1=O
-20%,10,6.2%,14%,c1ccc(C2CC(c3ccccc3)n3c(nc4ccccc43)N2)cc1 (centres undefined)
-20%,-8,13%,0%,O=C(C/C=N/OCc1c(Cl)cccc1Cl)c1ccccc1
-1%,4,-0.6%,2%,COC(=O)c1cc2ccc(OC)c(OC)c2c(=O)s1
0%,x,1.1%,4%,Nc1ncc(Br)cc1S(=O)(=O)Nc1ccccc1F
-18%,-1,-0.5%,-17%,Cc1nnc(-n2cnc3ccccc32)c2ccccc12
-54%,-1,-3.1%,-23%,CC(=O)c1ccc(NC(=S)NCCc2cccc(Cl)c2)cc1
-8%,3,1.2%,-11%,COc1cccc(N(C(C)=O)c2nc(C)cc(C)c2C#N)c1
-1%,8,8.6%,-8%,COc1ccccc1-c1ccc(SCC(=O)Nc2cc(C)on2)nn1
-33%,0,u,u,CCOC(=O)CC(=O)CSc1nc2c(cc1C#N)CCC2
-44%,8,-1.6%,-3%,O=C(OCc1csc(-c2ccccc2)n1)c1cccs1
-47%,4,0.5%,-13%,CCC(C)NC(=O)c1ccc2c(Cl)c3c(nc2c1)CCC3 (centres undefined)
3%,x,3.5%,-14%,O=C(O)CCN1C(=O)C2C3C=CC(C2C1=O)C1C(=O)N(CCC(=O)O)C(=O)C31 (centres undefined)
-1%,9,1.9%,14%,CC(NC(=O)c1cc(F)c(F)cc1Cl)c1ccncc1 (centres undefined)
20%,-2,-2.4%,4%,COc1ccc(Nc2cc(C)nc(-n3nc(C)cc3C)n2)cc1
-2%,x,1.0%,4%,CCC1CCCCN1Cc1ccc(CNC(=O)CCc2nnc3ccc(N4CCCCC4)nn23)o1 (centres undefined)
25%,-5,x,x,O=C(/C(N=Nc1cccc([N+](=O)[O-])c1)=C(/O)c1ccc(Br)cc1)C(F)(F)F
0%,0,-2.4%,-9%,CCC(C)C(=O)Nc1nnc(SCC(=O)Nc2ccc(F)cc2)s1 (centres undefined)
-21%,-4,3.8%,-9%,Cc1cc(C)n(-c2ccc(C(=O)OCc3nnc(-c4ccccc4)o3)cc2)n1
0%,x,0.2%,2%,Cc1nc(CNS(=O)(=O)c2ccc(F)cc2)cs1
-18%,x,0.1%,1%,C=CCN(Cc1nc(-c2ccccc2)no1)C(=O)c1ccco1
-6%,-4,-0.4%,-5%,COCCCNCCCCOc1ccc(Br)cc1Cl
-33%,x,u,u,NC(N)=NS(=O)(=O)c1ccc(N/C=C/C(=O)c2ccc(Cl)c(Cl)c2)cc1
-11%,5,0.2%,-4%,C=C(C)CSC1=C(C#N)C(c2ccccc2Cl)CC(=O)N1 (centres undefined)
-1%,-1,-0.3%,9%,COc1cc(CC(CC(=O)O)CC(C)OCc2ccccc2)cc(OC)c1 (centres undefined)
-57%,-8,-1.7%,23%,CCCOc1ccc(C2=NNC(=O)CC2)cc1
7%,x,-2.9%,1%,CC(C)(C)c1ccc(C(=O)N2CCN(CCNC(=O)C(=O)NCc3ccc(Cl)cc3)CC2)cc1
-1%,-2,-0.5%,9%,CC(=O)c1cc(-c2ccccc2)n(CCC(=O)NC2CCCCCCC2)c1C
-4%,-5,2.7%,0%,COc1cc(OC)c(OC)cc1NC(=O)CC1COc2ccccc2O1 (centres undefined)
-13%,-2,u,-7%,O=C(Nc1cccc(Cl)c1)N1CCCC1
-30%,x,5.4%,-3%,COC(=O)c1sc(NC(=S)NC(=O)c2cccc(Br)c2)nc1C
u,7,1.5%,25%,CC(C)(C)c1ccc(-c2cn(-c3ccc(Br)cc3)c3[n+]2CCCS3)cc1
2%,x,0.8%,-14%,Cc1cc(NC(=O)CCC(=O)N(Cc2ccco2)C2(C(=O)NC3CCCCC3)CCCCC2)no1
-6%,9,1.5%,1%,Cc1ccc(S(C)(=O)=NS(=O)(=O)c2cccc3nsnc23)cc1 (centres undefined)
-28%,x,5.9%,2%,COc1ccc(-c2nnc(NC(=O)c3ccco3)s2)cc1
x,x,3.0%,-13%,CNS(=O)(=O)c1cccc(C(=O)OCC(=O)NC2CCCC(C)C2C)c1 (centres undefined)
-7%,x,0.1%,-9%,N#C/C(=C/c1ccc(OCc2ccc(C(=O)O)cc2)cc1)C(=O)Nc1ccccc1
-2%,-1,3.4%,3%,Cn1c(=O)oc2cc(S(=O)(=O)NCCC(=O)NCCc3ccccc3)ccc21
-17%,-8,-4.3%,20%,O=C1CC(c2ccc(S(=O)(=O)Nc3cc(C(F)(F)F)cc(C(F)(F)F)c3)cc2)CN1 (centres undefined)
-4%,-4,-1.5%,4%,CC(C)CCC(CC(C)O)C(=O)NNC(=S)Nc1ccccc1 (centres undefined)
x,x,-0.2%,2%,O=C(CN1C(=O)c2ccccc2S1(=O)=O)Nc1ccc(S(=O)(=O)Nc2ncccn2)cc1
-36%,-1[21.1 µM],-4.8%,-23%,O=[N+]([O-])c1ccc(C2CN=C(Nc3ccccc3)S2)cc1 (centres undefined)
-4%,x,-1.4%,3%,COCCn1c(SCc2ccc(F)cc2)nc2ccccc2c1=O
7%,-5,6.4%,0%,Clc1cccc(-c2nc(NCCN3CCOCC3)c3ccccc3n2)c1
-15%,-6,0.3%,6%,O=C(c1cc(COc2c(F)cccc2F)on1)N1CCc2ccccc2C1
-6%,0,0.9%,-7%,c1csc(-n2nc3ccccc3n2)c1
1%,0,u,u,Cc1cc(N=Cc2c(O)n(-c3cccc(C(F)(F)F)c3)c(=O)c3ccccc23)no1
18%,-3,-1.0%,-6%,C=CCc1cccc(/C=N/NC(=O)CNc2ccccc2OC)c1O
-1%,-1,3.9%,-14%,CN(C)CCNC(=O)COc1cccc2c1OC(C)(C)C2
-4%,-1,2.9%,-17%,CCOc1ccc(CC(=O)OCn2nnc3ccccc3c2=O)cc1
-11%,-2,-1.4%,7%,CCn1cc(/C=N\NC(=O)c2csc3ccccc23)c(C)n1
-2%,-1,0.7%,-7%,CS(=O)(=O)NNC(=O)c1sccc1OCc1ncc(C(F)(F)F)cc1Cl
-1%,-10,-3.8%,7%,CN(C)c1nc(OCCNC(=O)Nc2ccc(Cl)cc2)nc(N(C)C)n1
22%,1,-4.1%,-14%,CSc1nc(SCC(=O)NCc2ccco2)c2c3c(sc2n1)COC(C)(C)C3
-5%,x,-0.8%,6%,CC1CCCN(CCCNC(=O)c2nn(C)c3c2CS(=O)(=O)c2ccccc2-3)C1 (centres undefined)
25%,-3,u,4.6µM*,COc1ccc2[nH]c3c4c(ccc3c2c1)C(=O)C=CC4=O
x,x,u,u,O=C(c1cnn2c(-c3ccccc3)cc(-c3ccccc3)nc12)N1CCN(Cc2ccccc2)CC1
x,x,-4.3%,-23%,O=C(Nc1cc(Cl)ccc1-n1cncn1)c1ccc(Br)o1
0%,-3,-2.0%,6%,CN(C)CCNC(=O)C(=O)NCC1OCCN1S(=O)(=O)c1ccc2c(c1)OCCO2 (centres undefined)

A second format for part of the listing above:
c1csc(-n2nc3ccccc3n2)c1
- miR-21 reporter: -6%
- GLA inh pH 4.5: 0
- Rango complex inh: 0.9%
- Rango dissoc inh: -7%
CSc1nc(SCC(=O)NCc2ccco2)c2c3c(sc2n1)COC(C)(C)C3
- miR-21 reporter: 22%
- GLA inh pH 4.5: 1
- Rango complex inh: -4.1%
- Rango dissoc inh: -14%
CN(C)c1nc(OCCNC(=O)Nc2ccc(Cl)cc2)nc(N(C)C)n1
- miR-21 reporter: -1%
- GLA inh pH 4.5: -10
- Rango complex inh: -3.8%
- Rango dissoc inh: 7%
CCOc1ccc(CC(=O)OCn2nnc3ccccc3c2=O)cc1
- miR-21 reporter: -4%
- GLA inh pH 4.5: -1
- Rango complex inh: 2.9%
- Rango dissoc inh: -17%

Following part:
miR-21 reporter,GLA inh pH 4.5,Rango complex inh,Rango dissoc inh,SMILES
x,x,0.9%,-2%,CN(C(=O)c1cccc(NC(=O)Cc2ccc(NC(=O)C3CCN(S(=O)(=O)c4cccc([N+](=O)[O-])c4)CC3)cc2)c1)C1CCC1
-1%,-24,u,u,CCOC(=O)CSc1cc(C)c(C#N)c2nc3ccccc3n12
-39%,7,-0.3%,2%,CCc1ccc(CCC(=O)Nc2ccc(C)c(C)c2)o1
x,x,-1.8%,-7%,Cc1cccc(-n2ncc3c(=O)[nH]c(SCC(=O)Nc4cc(C)on4)nc32)c1
-4%,-5,-6.4%,3%,CCOC(=O)CN(C(=O)CSc1nnc(-c2ccncc2)n1CCCOC)c1ccccc1
4%,2,-4.7%,1%,O=c1[nH]cnc2c([N+](=O)[O-])cccc12
15%,3,4.7%,-1%,COc1cc(C(=O)Nc2nncs2)cc(OC)c1OC
-1%,x,3.0%,9%,Cc1cc(F)ccc1S(=O)(=O)N1CCCOC1CNC(=O)C(=O)NCc1ccncc1 (centres undefined)
x,x,-0.7%,-12%,COc1ccc(CCNC(=O)c2cc(C3CC3)nc3c2cnn3C(C)C)cc1OC
x,x,u,u,CC(Oc1ccc(F)cc1)C(=O)Nc1cc(Cl)ccc1-n1cncn1 (centres undefined)
-3%,x,1.6%,37%,COc1ccc(-c2csc3ncnc(N4CCN(c5cccc(C)c5C)CC4)c23)cc1
0%,12,-2.5%,-5%,CCOC(=O)C1CCCN(S(=O)(=O)c2ccc(OC)cc2)C1 (centres undefined)
18%,-1,-1.1%,12%,COc1cc(OC)c2c(C)cc(=O)oc2c1C(CCN1CCOCC1)c1ccc(N(C)C)cc1 (centres undefined)
-7%,-1,-4.5%,-9%,COC(=O)CN1C(=O)C(C)(C)Oc2ccc(C(=O)NC3CC3)cc21
-9%,3,-7.8%,8%,COc1ccc(C(=O)OCC(=O)NC2CC2)cc1[N+](=O)[O-]
-31%,-10,8.4%,-22%,C/C=C(\C)c1nnc(NC(=O)OCC)s1
2%,x,-0.4%,16%,COc1ccc(NC(=O)CNC(c2ccccc2)c2ccccc2)cc1
-8%,-2,2.8%,-14%,CC(C)(C)C(=O)Nc1ncc(C(F)(F)F)cc1Cl
0%,0,-3.3%,6%,O=C(CSc1nnc(C2CCCCC2)n1Cc1ccccc1)NCc1ccco1
18%,-23,-0.6%,-2%,c1ccc2sc(C3CCN(Cc4nnnn4Cc4ccc5c(c4)OCO5)CC3)nc2c1
-6%,2,-0.9%,1%,Cc1nn(C(C)C(=O)NCC2CCCO2)c(=O)c2cc3occc3n12 (centres undefined)
-53%,5,-2.1%,9%,COc1cccc(OC)c1-c1nn2c(-c3ccco3)nnc2s1
-2%,-10,0.9%,7%,COc1ccc(N2CCN(C(=O)c3c(-c4ccccc4)noc3C)CC2)cc1
-9%,-1,-3.6%,9%,N#CNC(=Nc1ccc(F)cc1)SCc1ccccc1
1%,0,2.4%,1%,CN(CC(=O)NCc1ccccc1)S(=O)(=O)c1cnc[nH]1
-2%,0,0.9%&7.8%,u,CCc1ccc(OCC(O)CN2CCN(c3ccccc3)CC2)cc1 (centres undefined)
u,4,-1.0%,5%,COc1ccc(-c2c[n+](CC(=O)N3c4ccccc4Sc4ccccc43)c3n2CCC3)cc1
-40%,2,u,14%,C=CCN=Cc1c(C)[nH]n(-c2ccccc2)c1=O
